Screening results from PubChem BioAssay.
2A StopGo: FMDV 2A StopGo reporter, luciferase signal. 1.2% of 410,000 active. AID 1159524. Potency, µM (doses to about 57.9 µM), for the others: top-dose signal change, negative = less light. human cells with a luciferase reporter of 2A StopGo recoding; control for the full effect not named in the record; active = well fitted falling curve with a large enough effect; inconclusive = small, poorly fitted or top-dose-only effect; inactive = no such curve, though single readings can be large or run the other way; tested in HEK293T cells; also: % is scaled to controls: 0 for no effect and ±100 for the full control effect; nearly all actives have a fitted effect of over 45% in size; luciferase light after 4 h
SARS PLP yeast: inhibitors of SARS-CoV papain-like protease in yeast. S. cerevisiae expressing SARS-CoV PLpro, growth rescue; control for the full effect not named in the record. Potency, µM (titrated, usually from 32.9 µM), inactives show top-dose activity, positive = growth rescue. 0.19% of 330,000 active; also: 0% is about no effect; nearly all actives have a fitted effect of over 55% in size; growth read by luminescence after 48 h
NS1 function inh: influenza NS1 inhibition; 0.4% of 270,000 active; Potency, µM (top dose mostly 46.1 µM), for the others: top-dose activity, positive = more growth; S. cerevisiae slowed by influenza A NS1, growth recovery by OD600; AID 2326; also: actives are rising curves; nearly all actives have a fitted effect of over 50% in size
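Growth recovery, yeast-based: influenza A NS1 expressed in S. cerevisiae causes slow growth, and suppressors are detected by OD600. The parent strain without NS1 is used as positive control.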
Marburg entry inh: blocks Marburg virus binding to or entry into cells. AID 540276. Marburg virus pseudotyped entry inhibition, cell reporter; control for the full effect not named in the record; about a third of the inactives were read at about 46 µM. 1.8% of 300,000 active. Potency, µM (highest dose often 37.8 µM), for inactives: at the top dose activity change, negative = inhibition, most hits filed as inhibitors; active = well fitted inhibition curve with a large enough effect; inconclusive = small, poorly fitted or top-dose-only effect, or effect the other way; inactive = flat fitted curve, though single readings scatter; tested in HEK293 cells; about a fifth of its hits are not listed in these tables; also: % is scaled to controls: 0 for no effect and ±100 for the full control effect; luciferase read-out
RE007 growth inh: less growth of the S. pombe RE007 Vpr strain; S. pombe RE007 Vpr strain, BacTiter-Glo ATP luminescence, 24 h; control for the full effect not named in the record; Potency, µM (doses to about 92.2 µM), for inactives: at the highest dose activity change, negative = less growth; 0.21% of 360,000 active; active = well fitted falling curve with a large enough effect; inconclusive = small, poorly fitted or top-dose-only effect; inactive = no such curve, though single readings can be large or run the other way;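 also: % is scaled to controls: 0 for no effect and ±100 for the full control effect; nearly all actives have a fitted effect of over 50% in size; the assay follows cell death caused by Vpr and the record does not say whether a fall means rescue or toxicity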
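Fission yeast strain RE007, carrying one chromosomally integrated HIV-1 vpr copy, was seeded at OD 0.01 in PMG+AL medium with 23 nL pinned compound. After 24 h at 30 °C and 99% humidity, viability was read by BacTiter-Glo luminescence.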
Cruzain inh noDet: cruzain (T. cruzi) inhibition without detergent; P25779; purified cruzain, Z-FR-AMC fluorescence, no detergent; Potency, µM, for the others: max response, negative = inhibition, usual class: inhibitors; 2.3% of 200,000 active; AID 1476; active = well fitted curve in the direction sought with a large enough effect; inconclusive = small, poorly fitted or top-dose-only effect, or another doubt; inactive = no such curve, though single readings can be large; an effect the other way counts as inactive or inconclusive;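 also: plate controls were enzyme without inhibitor for no effect and buffer without enzyme for full effect; nearly all actives have a fitted effect of over 40% in size; top concentration of the series not given in the record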
Target sequence (P25779 123-467 limits assumed): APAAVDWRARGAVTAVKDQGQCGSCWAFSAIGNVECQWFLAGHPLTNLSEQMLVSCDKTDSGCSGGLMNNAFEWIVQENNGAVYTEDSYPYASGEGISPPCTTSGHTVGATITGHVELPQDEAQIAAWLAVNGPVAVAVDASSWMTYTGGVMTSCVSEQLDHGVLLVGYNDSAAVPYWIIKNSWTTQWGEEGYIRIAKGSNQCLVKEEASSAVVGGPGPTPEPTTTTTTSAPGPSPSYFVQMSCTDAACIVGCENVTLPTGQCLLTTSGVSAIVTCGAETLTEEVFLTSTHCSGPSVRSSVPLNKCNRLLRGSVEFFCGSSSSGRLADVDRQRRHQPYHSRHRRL
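Detergent-free condition (0.00005% Triton X-100) in acetate buffer pH 5.5 with DTT. 1.5 nM enzyme and compound were pre-mixed 15 min, then 2 uM Z-FR-AMC substrate added; reaction progress from fluorescence change between first and third reads (60 s).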
Cruzain Triton: cruzain (T. cruzi) inhibition with detergent. purified cruzain, Z-FR-AMC fluorescence, 0.01% Triton. Potency, µM, without a hit: max response, negative = inhibition, usual class: inhibitors. 0.43% of 200,000 active. AID 1478; active = well fitted curve in the direction sought with a large enough effect; inconclusive = small, poorly fitted or top-dose-only effect, or another doubt; inactive = no such curve, though single readings can be large; an effect the other way counts as inactive or inconclusive;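 also: plate controls were neutral wells for no effect and buffer without enzyme for full effect; nearly all actives have a fitted effect of over 40% in size; top concentration of the series not given in the record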
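Read-out: AMC fluorescence (360 nm excitation, 450 nm emission), four reads over 2 min, first-to-third difference used. Conditions: cruzain 1.5 nM, Z-FR-AMC 2 uM, pH 5.5 acetate, 5 mM DTT, 0.01% Triton X-100.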
Lassa entry inh: inhibitors of Lassa virus binding or cell entry; AID 540256; 1.2% of 300,000 active; Potency, µM (titrated, usually from 37.9 µM), inactives show at the top dose activity change, negative = inhibition, most hits filed as inhibitors; Lassa virus pseudotype entry inhibition, cell reporter; control for the full effect not named in the record; active means well fitted inhibition curve with a large enough effect; inconclusive means small, poorly fitted or top-dose-only effect, or effect the other way; inactive means flat fitted curve, though single readings scatter; tested in HEK293 cells; also: % is scaled to controls: 0 for no effect and ±100 for the full control effect; nearly all actives have a fitted effect of over 50% in size; luciferase read-out
Active calls of the source: *; ? = inconclusive; . = not tested or not shown; & = joins results of further samples; [ ] = dose if it differs, or a comment. Unless noted, calls follow the shape of the dose curve; as a rule, active means well fitted rising curve with a large enough effect; inconclusive means small, poorly fitted or top-dose-only effect; inactive means no such curve, though single readings can be large or run the other way. Potency is read from the fitted curve at half-maximal effect.

Each structure is followed by: 2A StopGo	SARS PLP yeast	NS1 function inh	Marburg entry inh	RE007 growth inh	Cruzain inh noDet	Cruzain Triton	Lassa entry inh
COC(=O)/C(C#N)=C/c1c(N2CCN(Cc3ccc4c(c3)OCO4)CC2)nc2c(C)cccn2c1=O
    -16%	-1%	3%	-5%	-15%	.	.	1%
O=C1C2CCCN2C(c2cccc(Br)c2)N1c1ccc(F)cc1 (stereo not given)
    -23%	-1%	3%	.	-12%	-19%	-2.4%	.
CCOC(=O)N1CCN(c2c(-c3ccc(C(C)C)cc3)c(=O)c2=O)CC1
    -7%	-5%	-29%	?	-11%	12%	0.9%	?
CC(C)Cc1nc(N2CCC(C(N)=O)CC2)c2nnn(Cc3ccccc3)c2n1
    30%[activator]	6%	1%	-1%	-7%	?	3.9%	2%
CCOC(=O)c1sc2nc(NC(=O)COc3ccccc3)sc2c1C
    -15%	-4%	-5%	0%	-9%	3%	-5.1%	.
COc1ccc(C(=O)Oc2cccc3cccnc23)cc1S(=O)(=O)N1CCOCC1
    1%	-7%	-44%	?	32µM*	.	.	-11%[46.1 µM]
CS(=O)(=O)c1ccc2nc(NC(=O)CCNC(=O)c3ccccc3Cl)sc2c1
    0%	-2%	.	-19%	3%	.	.	-8%
O=C(O)c1ccc(NC(=S)NC(=O)c2ccc3ccccc3c2)cc1
    1%	0%	-11%	-17%	-7%	.	.	10%
CCn1c(C)c(C(=O)Nc2ccc(OC)cc2)c2cc(OC)ccc21
    59%[activator]	1%	1%	.	-6%	.	.	.
C=CCn1c(SCC(=O)NNC(=O)Nc2ccc(C)cc2)nnc1-c1ccccc1
    -11%	0%	-2%	.	5%	.	.	.
CCC(=O)Nc1ccc(Cl)c(NC(=O)c2ccc([N+](=O)[O-])cc2)c1
    -23%	-7%	18%	-18%	-11%	-7%	-2.1%	-10%
CCC(=O)N1CCc2cc(S(=O)(=O)NCCC(=O)NCc3ccc(OC)cc3)ccc21
    -5%	.	.	6%[46.1 µM]	.	-13%	-0.7%	20%[46.1 µM]
Cc1c(Br)c(C(F)(F)F)nn1CC(=O)N(C)C1CCCCC1
    -1%	1%	5%	3%	-4%	.	.	4%
Cc1ccc(/C=N/Nc2nc3ccccc3[nH]2)s1
    -3%	2.8µM*	-15%	?	-4%	-24%	-17%	?
CC(C)CCNC(=O)c1nn(Cc2ccccc2)c(=O)c2ccccc12
    -29%	1%	5%	5%[46.1 µM]	-9%	.	.	-2%
COc1ccc(NC(=O)C2CCCN(S(=O)(=O)c3ccc4c(c3)CCCN4C(C)=O)C2)cc1 (stereo not given)
    -12%&-21%	-1%	-5%	20%&20%[46.1 µM]	0%	4%	4.1%	?
Cc1cccc(NC(NC(=O)Cc2ccccc2)C(Cl)(Cl)Cl)c1 (stereo not given)
    -18%	30%	-2%	7%	-1%	2%	-7.9%	6%
OC(CNCCN1CCNCC1)Cc1ccccc1 (stereo not given)
    -7%	.	.	16%	11%	.	.	-26%
Cc1ccccc1NC(=O)c1cc2c(=O)n3cccc(C)c3nc2s1
    -7%	-2%	-2%	?	-15%	.	.	?
O=c1nc2sc3ccccc3n2c(=O)n1-c1cccc(Cl)c1
    72%[activator]	8%	0%	?	2%	-29%	4.1%	?
CC(=O)Nn1cnc2c(c1=O)C1(CCCC1)Cc1ccccc1-2
    -4%	8%	-6%	-2%&-2%[46.1 µM]	-1%	0%	-4.7%	0%
CCOC(=O)C1(CCCc2ccccc2)CCN(C(=O)C2=C(C)OCCO2)CC1
    -24%	-2%	-11%	?	5%	.	.	?
CCOC(=O)c1c(N)sc2c1CCSC2
    -19%	-6%	-3%	-14%	-12%	?	-0.2%	0%
CCC(=O)c1ccc(OC(=O)c2ccc(Br)o2)cc1
    -22%	.	-2%	2%	-1%	.	.	12%
COc1ccc(NC(=O)CSc2cn(CC(=O)N3CCCCC3)c3ccccc23)c(OC)c1
    -18%	.	.	.	.	0%	-4.8%	1%[46.1 µM]
O=C1N(Cc2cccnc2)C[C@@H]2C[C@@H](c3ccc4nonc4c3)N3CCC[C@@]123
    11%	-1%	7%	.	0%	.	.	.
COc1ccc(/C=N/NC(=O)Nc2nonc2N)cc1
    50%[activator]	3%	-4%	10%	5%	-11%	-1.2%	3%
O=C(c1cc(S(=O)(=O)N2CCOCC2)ccc1Cl)N1CCc2ccccc2C1
    0%	3%	-5%	-7%	7%	.	.	-5%
COc1ccc(NC(=S)NC(NC(=O)c2ccc(Cl)cc2Cl)C(Cl)(Cl)Cl)c([N+](=O)[O-])c1 (stereo not given)
    .	2%	1%	?	-16%	-29%	-4.0%	1%
CCCc1nn2c(=O)cc(COC(=O)c3ccc(NC(=O)COc4ccccc4F)cc3)nc2s1
    -7%	.	.	.	.	4%	1.5%	4%[46.1 µM]

Of the compounds above, these contain a thiophene ring, fused or not:
Each structure is followed by: 2A StopGo	SARS PLP yeast	NS1 function inh	Marburg entry inh	RE007 growth inh	Cruzain inh noDet	Cruzain Triton	Lassa entry inh
CCOC(=O)c1sc2nc(NC(=O)COc3ccccc3)sc2c1C
    -15%	-4%	-5%	0%	-9%	3%	-5.1%	.
Cc1ccc(/C=N/Nc2nc3ccccc3[nH]2)s1
    -3%	2.8µM*	-15%	?	-4%	-24%	-17%	?
Cc1ccccc1NC(=O)c1cc2c(=O)n3cccc(C)c3nc2s1
    -7%	-2%	-2%	?	-15%	.	.	?
CCOC(=O)c1c(N)sc2c1CCSC2
    -19%	-6%	-3%	-14%	-12%	?	-0.2%	0%

Following part:
Each structure is followed by: 2A StopGo	SARS PLP yeast	NS1 function inh	Marburg entry inh	RE007 growth inh	Cruzain inh noDet	Cruzain Triton	Lassa entry inh
CC(=O)Nc1ccc(S(=O)(=O)Nc2ccc(S(=O)(=O)Nc3nc(C)cc(C)n3)cc2)cc1
    -9%	3%	1%	9%[46.1 µM]	-12%	.	.	3%[46.1 µM]
Fc1ccc(/C=N/N2CCN(Cc3ccccc3)CC2)cc1
    32%[activator]	-3%	8%	?	-5%	.	.	12%
CN1CCN(C(=O)CN2C(=O)CC(C)(C)S(=O)(=O)c3ccccc32)CC1
    .	3%	-5%	4%	4%	-10%	3.8%	13%
CC(=O)Nc1ccc(C(=O)n2cnc3cc(C)c(C)cc32)cc1
    3%	-2%	-10%	10%	15%	8%	-5.3%	-12%
CCC(=O)Nc1ccc(NC(=O)c2oc3ccccc3c2C)cc1
    9%	1%	-28%	.	-5%	.	.	.
CC1(C)Cc2c(cnn2-c2cccc(F)c2)C(NC(=O)c2ccc(=O)[nH]n2)C1 (stereo not given)
    -11%	-4%	8%	.	11%	.	.	.
Nc1ccc2c(c1)C(=O)c1cc(N)c(Cl)cc1-2
    27%	.	.	?	-22%	.	.	-8%[46.1 µM]
COc1ccc(C(C(=O)NC2CCCC2)N(C(=O)c2snc(C(N)=O)c2N)C2CCCC2)cc1OC (stereo not given)
    -7%	1%	-1%	1%[46.1 µM]	6%	.	.	4%[46.1 µM]
CCC(CC)C(=O)Nc1cccc(S(=O)(=O)c2cccc(NC(=O)C(CC)CC)c2)c1
    20%	24%	-3%	-1%	19%[3.69 µM]	?	-3.1%	4%
Cc1cc(C)c2c(=O)cc(C(=O)Nc3ccccc3Cl)oc2c1
    -17%	.	.	1%[46.1 µM]	.	2%	-3.3%	12%[46.1 µM]
CCOC(=O)NC(c1cccc(Cl)c1)C1CCCCCC1=O (stereo not given)
    -13%	6%	2%	-16%	0%	9%	0.8%	8%
COc1ccc(NC(=O)c2ccc(=O)oc2)cc1
    .	-8%	-10%	-15%	4%	1%	4.7%	-28%
C=CCN1C(=O)c2ccc(C(=O)N(C)CC(=O)Nc3c(C)cccc3C)cc2C1=O
    2%	-4%	.	0%	-7%	.	.	1%
COc1ccccc1-c1nc(SCC(=O)Nc2ccccc2)n[nH]1
    -21%	-3%	-3%	0%	5%	.	.	-25%
CC1(c2ccccc2)CC(C)(C)N(C(=O)c2cc([N+](=O)[O-])cc([N+](=O)[O-])c2)c2ccccc21 (stereo not given)
    -20%	-38%	-7%	?	.	25µM*	-2.8%	?
O=C(Nc1nnc(-c2ccccc2Cl)s1)C1CCN(S(=O)(=O)c2ccc(Cl)cc2)CC1
    ?	-17%	3%	5%	14%	?	-1.8%	11%
N#C/C(=C\c1ccc(O)cc1)C(=O)O
    -13%&-11%	.	.	.	4%[18.4 µM]	-16%	-9.5%	.
CC(O)(CS(=O)(=O)c1ccc(Br)cc1)c1ccccc1 (stereo not given)
    -15%	2%	-3%	.	-2%	.	.	.
CN(CC(=O)Nc1ccc(F)c(F)c1F)C(=O)c1ccc2c(c1)OCCO2
    3%	-4%	.	24%	-21%	.	.	15%
Cc1ccc(NC(=S)N2CCC(NC(=O)c3ccc(F)cc3)CC2)cc1
    -9%	2%	-6%	4%[46.1 µM]	-6%	.	.	-1%
CC(=O)N1CCN(S(=O)(=O)c2ccc(Cl)cc2F)CC1
    1%	0%	.	24%	9%	.	.	?
CCn1nc(C)c(CCN(C)C(=O)Nc2cc(Cl)ccc2C)c1C
    -10%	.	.	.	.	3%	0.3%	9%[46.1 µM]
O=C1NC(=O)C(=Cc2cc3c(cc2[N+](=O)[O-])OCO3)C(=O)N1
    -4%	0%	5%	-2%[46.1 µM]	-5%	.	.	1%
Cn1c(=O)c(=O)n(C)c2cc(S(=O)(=O)N3CCN(Cc4ccccc4)CC3)ccc21
    -21%	9%	-14%	?	7%	6%	3.8%	-20%
O=C(Cc1ccccc1)NC1CCN(Cc2ccccc2)CC1
    -11%	-2%	-5%	-9%[46.1 µM]	-14%	.	.	-3%

Compounds as they come; any-hit rate near 4.8%.
